Compound activity as filed in PubChem.
RecA splice inh: inhibitors of M. tuberculosis RecA intein splicing; P9WHJ3; cell-free RecA intein splicing, fluorescence; inhibition, %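 (about 9 µM by stock and volumes)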; 290,000 tested, 0.75% active; in the data active means inhibition above about 30%; inconclusive means no clear call, values can overlap the other calls;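 further: 0% = vehicle wells and 100% = reference inhibitor control wells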
Target sequence (P9WHJ3 whole entry, looked up, canonical isoform): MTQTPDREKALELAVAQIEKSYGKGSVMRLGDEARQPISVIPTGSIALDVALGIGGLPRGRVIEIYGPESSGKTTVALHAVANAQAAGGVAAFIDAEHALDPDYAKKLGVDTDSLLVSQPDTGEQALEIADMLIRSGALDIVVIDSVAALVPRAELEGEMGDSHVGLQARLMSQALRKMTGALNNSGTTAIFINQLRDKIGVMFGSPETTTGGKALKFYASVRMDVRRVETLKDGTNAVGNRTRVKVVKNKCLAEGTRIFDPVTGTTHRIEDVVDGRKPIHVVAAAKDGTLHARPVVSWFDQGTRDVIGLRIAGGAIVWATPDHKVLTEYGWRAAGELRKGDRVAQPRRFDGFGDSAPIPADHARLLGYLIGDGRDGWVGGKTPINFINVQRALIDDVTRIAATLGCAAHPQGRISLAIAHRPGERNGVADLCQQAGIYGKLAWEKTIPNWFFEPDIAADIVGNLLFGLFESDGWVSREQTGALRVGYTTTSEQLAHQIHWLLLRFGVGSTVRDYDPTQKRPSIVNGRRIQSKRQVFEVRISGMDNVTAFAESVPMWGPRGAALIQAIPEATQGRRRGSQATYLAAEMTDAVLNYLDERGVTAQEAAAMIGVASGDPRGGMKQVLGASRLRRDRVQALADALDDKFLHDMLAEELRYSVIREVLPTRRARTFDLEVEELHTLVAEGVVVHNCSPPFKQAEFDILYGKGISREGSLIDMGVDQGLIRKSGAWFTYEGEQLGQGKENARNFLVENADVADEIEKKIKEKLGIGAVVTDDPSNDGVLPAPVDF
YopH inh: inhibitors of Yersinia enterocolitica YopH tyrosine phosphatase | fluorescence Ex485/Em525 | 140,000 tested, 0.16% active | inhibition, %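 (about 10 µM by stock and volumes)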;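 active means inhibition of 50% or more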;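 further: controls were vehicle for no effect and minimum signal wells for full effect; inactives centre near -20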
Mtb growth: M. tuberculosis H37Rv growth inhibitors, H37Rv strain (AID 1626). M. tuberculosis H37Rv growth inhibition; higher % means a stronger effect. one-dose inhibition, % at 10 µM; IC50 in µM for titrated hits. 220,000 tested, 0.95% active;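 active means confirmed in a dose series; inconclusive means inhibition above 80% but not taken into the dose series; inactive means below 80% or under 30% at every dose of the series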;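 further: bacteria incubated seven days before Alamar blue readout; 0% = bacteria only wells and 100% = bacteria with antibiotic wells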
Arbovirus anti: antivirals against arbovirus infection; arbovirus infection cell-based antiviral screen; inhibition, % at 10 µM; 200,000 tested, 0.37% active; AID 1251;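 active means inhibition from about 30%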;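 further: bluetongue infection of BSR cells; cell survival read as ATP light after 72 h; 0% = infected wells without compound and 100% = uninfected wells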
Mtb bLac sens: beta-lactam sensitization of Mtb H37Rv; AID 434955; M. tuberculosis H37Rv growth with meropenem, percent inhibition; hits of this screen are not shown here; 330,000 tested, 0.27% active; inhibition, % at 25 µM;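 active means about 74% or more and at least 40 points above the plate without the antibiotic, then above 30% in a dose series; inconclusive means first-round hits that could not be retested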;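 further: growth measured after seven days incubation then overnight dye step; 0% = bacteria only wells and 100% = bacteria with antibiotic; twin plates without the antibiotic show which effects depend on it; some results filed as inactive read as strong as hits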
Arbovirus anti repeat: further read-out of Arbovirus anti, marked with its call; inhibition, %; measured here: 10K subset replicate screen; many hits read low in the repeat;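 first of two repeat runs on a subset; 0% = infected and 100% = uninfected wells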
Starred values were filed as active, the others as inactive; ? = inconclusive; · = no result given.

SMILES | RecA splice inh | YopH inh | Mtb growth | Arbovirus anti | Mtb bLac sens | others
CS(=O)(=O)c1ccc(Cl)c(NC(=O)CCNC(=O)c2ccco2)c1 | -0.9 | · | · | · | -4
O=C(CSc1nnc2ccc(-c3ccc(F)cc3)nn12)N1CCCC1 | 0.4 | · | -1% | -6 | 0
Cn1cc(CNC(=O)c2ccc(OC3CCN(Cc4ccccn4)CC3)cc2)cn1 | 0.4 | · | · | · | -7
CCOc1ccccc1CNS(=O)(=O)c1ccc2c(c1)oc(=O)n2C | -2.0 | -28 | 2% | 12 | 5 | Arbovirus anti repeat=5
CCc1nnc(NC(=O)c2cccc(NC(=O)C(C)C)c2)s1 | -1.9 | 1 | -4% | 0 | 0
O=C(Cn1nc(-c2cccc([N+](=O)[O-])c2)c2ccccc2c1=O)NCC1CCCO1 (centres undefined) | 2.7 | · | 4% | 1 | 14
O=C(COc1ccc(C(=S)N2CCOCC2)cc1)Nc1ccccc1C(F)(F)F | -2.2 | · | 13% | 1 | 4
CCCc1nc2sc3c(=O)n(N)cnc3c2c2c1COC(C)(C)C2 | 0.1 | -35 | -8% | -2 | -1
COCCCNC(=O)c1ccc([N+](=O)[O-])cc1 | -0.3 | · | -5% | 5 | -2
O=C1NC(c2ccccn2)Nc2sc3c(c21)CCC3 (centres undefined) | -5.1 | -13 | 16% | -19 | 86
COCCn1nnnc1C(c1ccc(OC)c(OC)c1)N1CCN(C(=O)c2ccco2)CC1 (centres undefined) | -1.1 | · | · | · | 8
Cc1ccc(C)c(N2CCN(S(=O)(=O)c3c(C)[nH]c(C)c3C(=O)N3CCCC3)CC2)c1 | 0.3 | · | · | · | 4
COC(=O)c1c(NC(=O)c2ccco2)sc(C(=O)Nc2ccc(F)cc2)c1C | -1.0 | -43 | 18% | -32 | 6
O=C(O)c1ccc(N/N=C/c2ccc(-c3ccccc3Cl)o2)cc1 | -40 | · | 4% | · | 28
CCCN(CCC)S(=O)(=O)c1cccc(C(=O)N=c2sccn2C)c1 | 2.1 | · | · | · | -1
O=C(CCC1CCCN(C(=O)C2=CCCCC2)C1)N1CCN(c2ccccn2)CC1 (centres undefined) | -1.8 | · | -2% | 0 | 0
Cc1cc(NC(=O)CCCC(=O)Nc2ccc(F)cc2)no1 | -2.5 | 9 | 4% | 0 | -7
O=S(=O)(Cc1ccc(Cl)cc1)N1CCN(c2ncccn2)CC1 | 1.4 | · | · | · | -5
CC(CC(=O)Nc1ccc(F)c([N+](=O)[O-])c1)c1ccccc1 (centres undefined) | 5.1 | -26 | 3% | 3 | -5
CN(C)c1ccc(/C=N/NC(=O)c2ccnn2C)cc1 | -3.3 | · | -7% | 2 | -7
COc1ccc(C(=O)Nc2nnc(SCC(=O)Nc3ccc(NC(C)=O)cc3)s2)c(OC)c1 | -2.0 | · | · | · | -5
O=C(Nc1ccc2nc3n(c(=O)c2c1)CCCC3)c1ccccc1F | -1.1 | · | · | · | -1
CCOC(=O)c1[nH]c2ccccc2c1NC(=O)c1ccco1 | -1.6 | -19 | 0% | 0 | 2
CCCN1C(=O)C(O)(c2c(C)[nH]c3ccccc23)c2ccccc21 (centres undefined) | 2.8 | · | -14% | · | -10
COc1ccccc1OCc1nc2ccccc2n1C | -7.0 | · | · | · | 3
C/C=C/c1ccc(OCC(=O)Nc2ccc(C(N)=O)cc2)c(OC)c1 | -2.2 | · | 4% | 21 | 1
Cc1ccc2cccc(NC(=S)NC(=O)c3c(Br)cnn3C)c2n1 | 0.8 | -30 | -1% | -9 | 87
COc1ccc(OC)c(CNc2ncc(-c3cccc([N+](=O)[O-])c3)n2C)c1 | -1.0 | · | · | · | -6
Cc1cc(C)c2c3c(sc2n1)C(c1cccc(F)c1)C(C#N)=C(N)O3 (centres undefined) | · | -8 | 5% | 7 | 33
CC(NC(=O)c1ccc2c(c1)OCO2)C1CCCO1 (centres undefined) | 3.2 | -31 | -6% | -2 | -2 | Arbovirus anti repeat=-1
COc1ccc(C(c2oc(CO)cc(=O)c2O)c2oc(CO)cc(=O)c2O)cc1 | -3.6 | · | -1% | 1 | 11
COc1ccc(NC(=O)/C(C#N)=C\c2ccc(-c3cccc(C(=O)O)c3C)o2)cc1 | -0.6 | · | · | · | 38
CCOc1ccccc1NS(=O)(=O)c1ccc2c(c1)n(C)c(=O)c(=O)n2C | 3.4 | -28 | -6% | -3 | 3
O=C(CC(c1ccccc1)c1ccco1)N1CCOCC1 (centres undefined) | · | -36 | -8% | -5 | -2
O=C(O)c1cncc(SCc2ccccc2)n1 | 2.7 | · | · | · | -8
O=c1cc(O)c2ccccc2n1Cc1ccccc1 | -4.3 | · | -5% | 6 | 4
O=C(CSc1nnc(NC(=O)Cc2ccc(F)cc2)s1)NCc1ccco1 | -0.2 | · | 0% | 3 | -7
COc1ccc(NC(=O)C2CCN(S(=O)(=O)c3c(C)noc3C)CC2)cc1 | -0.5 | · | · | · | 4
COc1cc(C(=O)Nc2ccc3c(c2)CCCN3C(=O)c2ccco2)c([N+](=O)[O-])cc1OC | 1.2 | · | · | · | -10
COC(=O)CC/C(O)=C1/C(=N)CC(C)(C)CC1=O | 0.5 | -20 | -10% | 1 | -1
Cc1ccccc1CNC(=O)c1cc(COc2ccc(F)cc2F)on1 | -0.3 | · | 11% | 4 | 1
O=C(CNS(=O)(=O)c1ccccc1)N1CCN(Cc2ccccc2)CC1 | -3.6 | · | · | · | 3
CCCCC(=O)Nc1c(O)c2ccccc2[nH]c1=O | · | -33 | -1% | 12 | -4
O=C(O)c1cn(Cc2ccccc2)nc1-c1ccccc1 | 0.1 | · | 3% | 7 | -2
CC(Oc1ccc(Br)cc1)C(=O)NCC(c1ccco1)N1CCCCC1 (centres undefined) | 3.6 | · | · | · | 2
CC(C)CC(C(=O)NC(=O)NCc1ccccc1)N1C(=O)c2ccccc2C1=O (centres undefined) | 7.9 | 25 | -5% | -2 | -4
CNC(=O)CSc1nnc(-c2ccco2)n1-c1ccccc1 | -0.8 | · | · | · | 2
C[C@@H]1C(=O)O[C@H]2[C@H](O)[C@@]34[C@H]5C[C@@H](C(C)(C)C)[C@]36[C@@H](OC(=O)[C@@H]6O)O[C@@]4(C(=O)O5)[C@@]12O | -0.7 | · | · | · | -1
O=C(NC1CCN(S(=O)(=O)c2ccc(F)cc2)CC1)c1cccc(F)c1 | 3.1 | · | · | · | 5
Cc1ccc(S(=O)(=O)n2ccc(=O)[nH]2)cc1 | -3.2 | · | 3% | 13 | -9
(cont.)
SMILES | RecA splice inh | YopH inh | Mtb growth | Arbovirus anti | Mtb bLac sens | others
Cc1ccc(NC(=S)N/N=C2\CCCCC2C)cc1 (centres undefined) | 7.2 | · | -1% | -2 | 1
COC(=O)CCN(C(=O)c1cccc([N+](=O)[O-])c1)c1ccccn1 | -1.6 | · | -3% | 3 | 1
COc1ccccc1OCC#CCN1CCCCCC1 | 1.9 | · | 4% | 1 | -6
COc1ccc(-n2c(C)nc3cc(C(=O)NCc4ccco4)ccc32)cc1 | -3.6 | -37 | 7% | 0 | 15
COc1ccc(C(=O)OCCN2CCCCC2)cc1 | -0.8 | · | 3% | 3 | -9
CC(C)Cc1cc(C(=O)N2CCN(C(c3ccccc3)c3ccccc3)CC2)no1 | 6.4 | -2 | -10% | -23 | 5
CCOCCCNCc1c(Cl)cccc1Cl | 2.6 | -23 | -4% | -20 | -2
Cc1cccc(C)c1OCc1cc(C(=O)NC2CCC(O)CC2)no1 (centres undefined) | 1.8 | · | · | · | ?
CC1=C2C(=O)C3C(CC=C4CC(OC5OC(O)C(O)C(O)C5CO)CCC43C)C2CCC12OC1CC(C)CNC1C2C (centres undefined) | -10 | · | -4% | · | -4
CCOc1ccc(NC(=O)CSc2nnc(-c3ccco3)n2C)cc1 | 0.5 | -21 | 70% | 1 | 61
O=C(Nc1cc2c(cc1Cl)OCCCO2)c1ccccc1 | -1.1 | -1 | -6% | -10 | -4
COc1cc(Cl)c(NS(=O)(=O)c2cc3[nH]c(=O)c(=O)[nH]c3cc2C)c(OC)c1 | -4.2 | · | · | · | -11
Cc1cc(-c2[nH]nc3c2C(c2ccc(Cl)cc2)C(C#N)=C(N)O3)c(C)s1 (centres undefined) | 77* | -22 | -3% | 2 | 5
O=C(NNS(=O)(=O)c1ccccc1[N+](=O)[O-])c1cc2ccccc2cc1O | -18 | · | · | · | -2
O=C(CN1CCC(NC(=O)Nc2ccccc2)CC1)Nc1cccc([N+](=O)[O-])c1 | 4.0 | · | · | · | 3
O=C(CCC(=O)OCC(=O)c1ccc(Br)cc1)NC1CCCCC1 | 2.8 | 4 | 4% | 2 | -16
CCc1cc2c(SCC(=O)C(C#N)=C3N(C)c4ccccc4N3C)ncnc2s1 | 2.7 | -53 | -10% | 10 | -5
Cc1cc(C(=O)NNC(=S)NC(C)c2ccccc2)c2ccccc2n1 (centres undefined) | 1.9 | 1 | 4% | 12 | -10
Cc1ccc(S(=O)(=O)/C(=C\N(C)C)c2cnc(Cl)s2)cc1 | -2.5 | · | 0% | -2 | 3
COCCNC(=O)CN(C(=O)c1ccc(N2CCCC2)nc1)c1ccc(F)c(Cl)c1 | 1.7 | · | · | · | 0
CCN(C1CCCCC1)S(=O)(=O)c1cn(C)c(=O)n(C)c1=O | 7.1 | -42 | 3% | -7 | 2
COc1ccc(CN2CN(c3ccc(Cl)cc3)C(=O)N(n3cnnc3)C2)cc1 | 0.1 | 20 | -12% | -2 | 4
Cc1ccc(CNc2nnnn2C)cc1 | -3.3 | · | · | · | 0
Cc1c(C(=O)NNC(=S)Nc2cccc(Cl)c2)nnn1-c1ccccc1 | 6.4 | -42 | -3% | -11 | 9
COc1ccc(C(=O)NC2c3ccccc3-c3ccccc32)cc1 | 2.7 | -16 | -3% | -8 | -3
C/C(=N/NC(N)=S)c1ccc(Br)s1 | 1.7 | · | 64% | 0 | 97
COc1ccc(CCNC(=O)C(=O)N2CCCC2)cc1OC | 2.0 | · | -2% | 1 | -2
COc1ccccc1OCCC(=O)N1CCN(c2ccccc2OC)CC1 | -0.1 | · | -5% | · | -15
Cc1csc2ncnc(NNC(=O)c3ccc(Cl)cc3)c12 | 0.5 | · | -2% | · | 52
COc1ccccc1NS(=O)(=O)c1cccc(C(=O)N2CCN(Cc3ccc4c(c3)OCO4)CC2)c1 | -2.5 | · | · | · | -5

Next part (5 carried over from the part before).
SMILES | RecA splice inh | YopH inh | Mtb growth | Arbovirus anti | Mtb bLac sens | others
C/C(=N/NC(N)=S)c1ccc(Br)s1 | 1.7 | · | 64% | 0 | 97
COc1ccc(CCNC(=O)C(=O)N2CCCC2)cc1OC | 2.0 | · | -2% | 1 | -2
COc1ccccc1OCCC(=O)N1CCN(c2ccccc2OC)CC1 | -0.1 | · | -5% | · | -15
Cc1csc2ncnc(NNC(=O)c3ccc(Cl)cc3)c12 | 0.5 | · | -2% | · | 52
COc1ccccc1NS(=O)(=O)c1cccc(C(=O)N2CCN(Cc3ccc4c(c3)OCO4)CC2)c1 | -2.5 | · | · | · | -5
COC(=O)C(NC(C)=O)(Nc1ccc(Br)cn1)C(F)(F)F (centres undefined) | 0.3 | -11 | -15% | 5 | 0
COc1ccc(CNC(=O)C(=O)c2cn(CC(=O)N3CCOCC3)c3ccccc23)cc1 | -2.0 | · | · | · | 7
Nc1nc(NC(=O)c2cccc(S(=O)(=O)N3CCCCCC3)c2)nc(-c2ccccc2)n1 | -3.2 | 1 | -7% | -7 | 0 | Arbovirus anti repeat=-12
CCOC(=O)c1csc(N)n1 | -1.6 | · | 0% | -1 | -3
Cc1ccc(C)c(N(C(=O)c2csnn2)C(C(=O)NC2CCCCC2)c2ccccn2)c1 (centres undefined) | -0.7 | · | · | · | -10
COc1ccc(-c2csc(NC(=O)C3=NN(c4ccccc4)C(=O)CC3)n2)cc1 | 5.0 | · | -4% | 31* | -4
O=C(Nc1ccc(Nc2ccncc2)cc1)c1ccc(Nc2ccnc3ccc([N+](=O)[O-])cc23)cc1[N+](=O)[O-] | -1.0 | · | 1.4µM* | · | 100
CCOC(=O)/C(C#N)=C/Nc1ccccc1OC | 0.5 | -29 | 0% | -2 | 1
O=S(=O)(c1ccc(F)cc1)N1CCCCC1c1cccnc1 (centres undefined) | 0.7 | · | -9% | · | 0
O=C(O)CC[N+](=O)[O-] | -4.9 | · | -9% | · | -6
Cc1ccc(OCc2nc(-c3ccc(Cl)cc3)n[nH]2)cc1 | 1.2 | 19 | 4% | -6 | 24
CCN(CC(=O)NCc1ccc(Cl)cc1)C(=O)c1cccc(S(=O)(=O)Nc2ccc(OC)cc2)c1 | 1.2 | · | · | · | -6

This is a subset (hit frequency here may not be typical).
